From PubChem
GALR2 agonist: activates the human galanin receptor 2. GALR2-expressing cells, agonist activation read-out. activation, %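 (tested at 5 µM)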. 0.48% of 140,000 active. AID 803;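 active means above mean plus 3 SD of all compounds, about 5% in these data, not always enough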;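 further: 0% = vehicle buffer wells and 100% = reference agonist at full effect; tested in CHO reporter cells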
Target sequence (O43603 whole entry, looked up): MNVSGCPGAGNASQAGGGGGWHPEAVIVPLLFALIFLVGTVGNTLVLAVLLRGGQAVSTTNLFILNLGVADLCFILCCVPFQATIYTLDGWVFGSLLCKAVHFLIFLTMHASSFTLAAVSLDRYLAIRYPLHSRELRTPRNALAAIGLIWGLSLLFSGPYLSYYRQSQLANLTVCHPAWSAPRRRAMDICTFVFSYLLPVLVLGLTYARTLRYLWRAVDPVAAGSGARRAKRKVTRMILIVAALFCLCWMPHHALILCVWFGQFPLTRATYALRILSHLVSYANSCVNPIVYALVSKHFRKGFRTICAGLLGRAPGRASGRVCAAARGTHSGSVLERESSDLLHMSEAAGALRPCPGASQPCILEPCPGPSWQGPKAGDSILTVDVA
PKD1 kinase inh: inhibitors of human PKD1 kinase; Q15139; PKD1 kinase fluorescence polarization assay; inhibition, %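 (about 10 µM by stock and volumes)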; 0.056% of 200,000 active; AID 797;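 active means inhibition of 50% or more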;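 further: controls were vehicle for no effect and a reference inhibitor for full effect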
HSV augment: HSV replication enhancement | HSV replication augmentation in cells, fold increase | maximum fold increase | 0.005% of 220,000 active;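 active means peak rise of 1.5-fold or more in the series; tested in PC3 cells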;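 further: first round at 10 µM; read as green reporter fluorescence; hits show the peak of a series up to 25 µM; 1 = signal of infected wells without compound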
RGS16-Gao: regulators of human RGS16-Galphao interaction | bead-based flow cytometry RGS16-Galphao binding, fluorescence; actives lie on both sides | binding response (% of control), % at 10 µM | 0.38% of 220,000 active | AID 1441;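 active means below 25% or above 175%, edge rows of some plates excepted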;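 further: Galphao activated by GDP with aluminum fluoride before binding; 100% = wells without compound and 0% = beads without RGS; some results beyond the cut were filed as inactive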
Target sequence (O15492 whole entry, looked up): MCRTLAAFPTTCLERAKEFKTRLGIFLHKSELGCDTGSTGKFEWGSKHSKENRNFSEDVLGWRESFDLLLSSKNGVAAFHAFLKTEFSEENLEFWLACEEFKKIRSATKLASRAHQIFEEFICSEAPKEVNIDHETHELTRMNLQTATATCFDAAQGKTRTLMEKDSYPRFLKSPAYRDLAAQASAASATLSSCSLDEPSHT
Target sequence (P09471 whole entry, looked up): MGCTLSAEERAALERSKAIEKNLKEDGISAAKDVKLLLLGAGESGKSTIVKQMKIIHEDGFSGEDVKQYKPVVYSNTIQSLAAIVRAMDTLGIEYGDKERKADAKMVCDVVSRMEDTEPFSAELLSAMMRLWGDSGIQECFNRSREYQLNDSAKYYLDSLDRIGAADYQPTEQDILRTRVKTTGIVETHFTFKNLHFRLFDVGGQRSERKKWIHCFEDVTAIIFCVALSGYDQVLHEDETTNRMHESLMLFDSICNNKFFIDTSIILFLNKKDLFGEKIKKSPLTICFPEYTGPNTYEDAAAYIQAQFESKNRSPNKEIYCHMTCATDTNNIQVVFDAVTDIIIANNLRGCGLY
Insulin prom inh: TRM-6 insulin promoter activity inhibition; inhibition, % at 2 µM; AID 1273; TRM-6 cells (human fetal islet line), insulin promoter-eGFP reporter, imaging; reporter expression induced with tamoxifen; 0.9% of 130,000 active;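 active means inhibition above the mean plus 3 SD, with well images judged a real hit on visual review, cut at about 60% in these data, passing the limit was not always enough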
Insulin prom inh cell count: also measured in Insulin prom inh; calls as there; normalized cell count, %; measured here: cell count, toxicity; reference of the scale not given here;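 cells exposed to compound for 48 h; stained nuclei by imaging scaled within each plate; lower means fewer cells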
HSV augment primary fold: further read-out of HSV augment, marked with its call; fold increase; compound at 10 µM; measured here: primary screen fold increase 10 uM; tested in PC3 cells;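 GFP signal in the first replicate; 1 = infected wells without compound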
The depositor's hits bear a star; i = inactive; . = no result given. The order is random. Share with any hit: about 1.1%.

SMILES | GALR2 agonist | PKD1 kinase inh | HSV augment | HSV augment primary fold | RGS16-Gao | Insulin prom inh | Insulin prom inh cell count
CC(C)COP(=O)(CNC(=O)CN1C(=O)c2ccccc2S1(=O)=O)OCC(C)C | -0.8 | -6 | i | 0.99 | 100 | -36 | 126
CCCOC1CCCN(Cc2cn(C)nc2-c2ccccc2F)C1 (stereo unspecified) | . | 1 | i | 0.97 | 111 | 19 | 126
COCCNc1nc(-c2cc(C)c(C)cc2C)cs1 | . | 6 | i | 1.1 | 101 | . | .
CCN(CC)C(=O)Cn1c(=O)c2ccccc2n2c(=S)sc(-c3cccc(C)c3)c12 | 0.1 | -1 | i | 1 | 108 | . | .
COc1ccc(C(=O)N/N=C(/C)c2cccc(NC(=O)C(F)(F)F)c2)cc1 | -0.4 | 2 | i | 0.95 | 98 | 46 | 87
COc1ccc(C(C)=O)cc1CSCC(=O)O | . | -5 | i | 0.98 | 102 | -64 | 95
CCOc1ccc2nc(SCc3ccccc3C#N)sc2c1 | -1.6 | -15 | i | 0.87 | 87 | -7 | 65
CCN1C(=O)c2cccc3c(NS(=O)(=O)c4ccc(NC(C)=O)cc4)ccc1c23 | -3.1 | 0 | i | 0.96 | 94 | -35 | 112
COc1cc(/C=C/C(=O)Nc2ccc3nc4n(c(=O)c3c2)CCCC4)cc(OC)c1OC | . | 11 | i | 0.95 | 108 | . | .
COc1cc(NC(=O)/C=C/c2ccccc2[N+](=O)[O-])cc(OC)c1 | -0.3 | -9 | i | 0.85 | 100 | . | .
CCN(CC)Cc1cc2[nH]c3c4ccc(Cl)cc4ncc3c2cc1OC | . | . | i | 0.65 | 99 | . | .
CCOc1ccc(C(=O)Nc2sc3c(c2C(=O)OC)CC(C)(C)NC3(C)C)cc1 | . | 6 | . | . | 97 | . | .
CC1CCN(c2nc(-c3ccc(F)cc3)cc(C(F)(F)F)n2)CC1 | -3.2 | 7 | i | 0.8 | 98 | . | .
COc1ccc(/C=C(\NC(=O)c2ccccc2)C(=O)N/N=C/c2cccnc2)cc1 | . | . | i | 1 | 99 | . | .
CC(NC(=O)c1cc(-c2ccccc2)on1)c1ccccc1 (stereo unspecified) | -0.9 | -5 | i | 1.1 | 94 | . | .
CCc1ccccc1NC(=S)N1CCC(C(=O)c2ccc(F)cc2)CC1 | -2.0 | 2 | i | 0.96 | 100 | 21 | 83
O=C(NC1CCN(C(=S)NCc2ccco2)CC1)NC12CC3CC(CC(C3)C1)C2 | -0.5 | -8 | i | 0.88 | 101 | 26 | 128
NC(=O)c1c(NC(=O)c2ccccc2)sc2c1CCc1ccccc1-2 | -1.0 | 2 | i | 0.76 | 98 | 19 | 116
O=C(NCc1ccccc1C(F)(F)F)C1CC(c2ccccc2C(F)(F)F)=NO1 (stereo unspecified) | . | . | i | 0.74 | 98 | . | .
CCOC(=O)COc1cccc2c(=O)n(CC(=O)N3CCc4ccccc43)ccc12 | -3.1 | 0 | i | 1.1 | 33 | . | .
COc1ccc(C2/C=C\CN(C(=O)C3CCCCC3)CC(=O)N2Cc2ccc(F)cc2)cc1 (stereo unspecified) | . | . | i | 0.84 | 81 | . | .
CO/N=C/NC(=O)NOCc1c(Cl)cccc1Cl | -2.1 | -10 | i | 0.93 | 101 | 57 | 74
COc1cccc(NC(=O)c2ccc(CN3CCOCC3)cc2)c1 | -0.8 | -6 | i | 1 | 101 | -28 | 117
Cn1c(=O)c2c(nc(SCC(=O)NC34CC5CC(CC(C5)C3)C4)n2C)n(C)c1=O | -2.0 | 0 | i | 0.78 | 100 | -8 | 45
COc1cccc(NC(=S)NCCc2ccccn2)c1 | . | -2 | i | 1 | 100 | -17 | 128
COCc1c(C(=O)OC/C(O)=C(\C#N)c2nc3ccccc3[nH]2)oc2ccccc12 | . | 1 | i | 1 | 98 | -15 | 121
CCCCSc1nc(C(=O)O)cc(=O)[nH]1 | . | . | i | 1.1 | 105 | . | .
CCN(CC)CCCN1C=C2C(=O)C(C)(OC(=O)CCc3ccccc3)C(=O)C=C2C=C1c1ccc(C#N)cc1 (stereo unspecified) | . | . | i | 0.85 | 85 | . | .
Cc1cc(C)cc(NC(=O)Cn2nnc3ccccc3c2=O)c1 | . | -1 | i | 0.91 | 105 | 25 | 153
CCN(CC)S(=O)(=O)c1cc(C(=O)Nc2cccnc2Cl)ccc1Cl | . | 0 | i | 0.89 | 99 | . | .
CC(C)c1nnc(NC(=O)CCCC(=O)O)s1 | -0.6 | 2 | i | 1 | 107 | . | .
CC1(C)Cc2c(sc3nc(C4CC4)n(N)c(=O)c23)CO1 | . | . | i | 0.97 | 97 | . | .
COC(=O)c1ccccc1-c1ccc(/C=N/NC(=O)c2cc3ccccc3o2)o1 | -0.2 | -6 | i | 1.1 | 35 | . | .
CCn1ncc(Br)c1C(=O)Nc1ccc(Cl)cn1 | 0.8 | -4 | i | 1.2 | 104 | 29 | 75
O=C(O)C1=NN(c2ccccc2)C(=O)C1 | . | . | i | 1.2 | 109 | . | .
CCN1CCN(S(=O)(=O)c2ccc(S(=O)(=O)N(CC)Cc3ccccc3)cc2)CC1 | -1.4 | -1 | i | 0.9 | 104 | -28 | 99
Cc1ccc(-n2c(C)cc(/C=C3/SC(=O)N(CC(=O)N4CCOCC4)C3=O)c2C)nc1 | . | . | i | 0.87 | 97 | . | .
CCSc1nnc(NC(=O)CN2C(=O)C3CC=CCC3C2=O)s1 (stereo unspecified) | . | -5 | i | 1.2 | 100 | -24 | 97
S=c1[nH]nc(C2CC2)n1Cc1ccccc1 | . | -1 | i | 1 | 98 | . | .
CCCCN(CC)CCCNC(=S)Nc1ccc2nc3n(c(=O)c2c1)CCCCC3 | -0.4 | -11 | i | 0.86 | 101 | 21 | 106
Cc1ccc2oc(=O)c3cc(C(=O)NCCN4CCN(C)CC4)sc3c2c1 | -0.9 | -2 | i | 0.76 | 103 | . | .
Cc1nc(COC(=O)c2c(C)nn(-c3ccccc3)c2C)cs1 | -0.7 | 0 | i | 0.9 | 110 | -9 | 117
CC1=NN(c2ccc(N)cc2)C(=O)C1 | -2.7 | -3 | i | 1.1 | -44 | 45 | 80
CCOC(=O)C1=C(C)Nc2ccccc2N=C1NC(=O)Cc1ccc(Br)cc1 | -0.3 | 0 | i | 0.84 | 92 | -223 | 94
Cc1nnc(NC(=O)CSc2nnc(Cc3ccccc3)n2-c2ccccc2)s1 | -1.4 | 1 | i | 0.89 | 104 | i | 55
Cc1cccc[n+]1CC(=O)/C=C1\N(C)c2ccccc2C1(C)C | -0.4 | 7 | i | 0.98 | 102 | . | .
Cc1cccc(NC(=O)c2cc(NC(=O)c3ccco3)ccc2Cl)n1 | -0.8 | -6 | i | 0.93 | 104 | 23 | 75
Cc1ccc(S(=O)(=O)Nc2cccnc2Oc2ccc(Cl)cc2)cc1 | . | . | i | 1.1 | 112 | . | .
CC12CN3CCN(CC(C3)C1(O)CN1CCOCC1)C2 (stereo unspecified) | -1.1 | -6 | i | 0.97 | 141 | 0 | 85
CC(C)NC(=S)NC(=O)/C=C/c1ccc(F)cc1 | -0.4 | -8 | i | 0.73 | 79 | 30 | 72
CCc1ccc(-c2nc(CS(=O)CC(=O)O)c(C)o2)cc1 (stereo unspecified) | . | . | i | 1 | 105 | . | .
COCCn1c(SCC(=O)Nc2cc(Cl)ccc2OC)nc2c(c1=O)SC(C)C2 (stereo unspecified) | -2.5 | -2 | i | 0.89 | 100 | . | .
COc1cc(Br)c(C2C(C#N)=C(N)Oc3n[nH]c(-c4cccnc4)c32)cc1OC (stereo unspecified) | . | -2 | i | 0.86 | 105 | 5 | 107
CN(C)/C(CN1CCN(C=O)CC1)=C1\N=C(c2ccccc2)OC1=O | -2.2 | 4 | i | 0.8 | 115 | -46 | 77
O=C1CNC(=S)N1CCCn1ccnc1 | . | -5 | i | 0.98 | 101 | . | .
COc1ccc(CCC(=O)Nc2c(C)n(C)n(-c3ccccc3)c2=O)cc1 | . | 6 | i | 0.86 | 100 | 7 | 108
COc1ccc(OC)c(NC(=O)C2C3C=CC(C3)C2C(=O)NCc2cccnc2)c1 (stereo unspecified) | . | -1 | i | 0.97 | 106 | -21 | 134
COc1ccc(C(=O)C2CCCN(C(=O)Cn3nc(C)cc3C)C2)cc1F (stereo unspecified) | . | . | i | 1.1 | 103 | . | .
CC(C)c1ccccc1-n1c(SCC(=O)N2CCc3ccccc3C2)nc2ccccc2c1=O | -0.7 | -3 | i | 1.1 | 98 | 10 | 107
CC(C)COC(=S)Nc1ccccc1 | 0.6 | -5 | i | 0.97 | 101 | 29 | 98

The listing continues.
SMILES | GALR2 agonist | PKD1 kinase inh | HSV augment | HSV augment primary fold | RGS16-Gao | Insulin prom inh | Insulin prom inh cell count
COC(=O)C(Cc1ccccc1)NC(=O)c1cc(S(=O)(=O)N(C)C)ccc1Cl (stereo unspecified) | . | -1 | i | 1.1 | 96 | . | .
Cc1cccc(CCN=c2c([N+](=O)[O-])nn(-c3ccccc3)n2O)c1 | . | -3 | i | 0.99 | 74 | -109 | 100
CC1CCCC(NC(=O)CN(C)S(=O)(=O)c2cnc[nH]2)C1C (stereo unspecified) | . | 3 | i | 0.92 | 98 | -14 | 105
Cc1ccccc1NC(=O)Nc1nc2ccc(S(C)(=O)=O)cc2s1 | -0.2 | 3 | i | 1.1 | 91 | . | .
Cc1ccc(C(=O)c2sc3c(c2N)c(=O)[nH]c(=O)n3CCc2ccccc2)cc1 | 1.8 | -4 | i | 0.84 | 103 | . | .
CCCCCC(=O)NN1C(=S)N(c2ccc(OC)cc2)C(=O)C1CC(=O)Nc1ccccc1 (stereo unspecified) | . | . | i | 0.9 | 100 | . | .
CC(C)c1cc(C(=O)Nc2sc3c(c2C#N)CCC3)no1 | 0.2 | -15 | i | 0.96 | 88 | . | .
O=C1CC(Nc2ccc(N3CCOCC3)cc2)C(=O)N1Cc1ccccc1 (stereo unspecified) | -2.8 | -4 | i | 0.95 | 93 | 50 | 120
CCN(C(N)=S)c1ccccc1 | -0.1 | -9 | i | 0.99 | 99 | . | .
CN1CCN(c2nc(-c3ccccc3)c3cc(Cl)ccc3n2)CC1 | 18* | 13 | i | 0.98 | 103 | -36 | 176
CCCN(CC(=O)Nc1ccccc1C)C(=O)/C=C/c1cccs1 | -0.4 | -13 | i | 0.95 | 112 | -39 | 80
Clc1ccc(-n2cccc2)cn1 | . | 1 | i | 0.98 | 93 | . | .

Some of the entries so far, as comma-separated lines:
SMILES,GALR2 agonist,PKD1 kinase inh,HSV augment,HSV augment primary fold,RGS16-Gao,Insulin prom inh,Insulin prom inh cell count
COc1ccc(OC)c(NC(=O)C2C3C=CC(C3)C2C(=O)NCc2cccnc2)c1 (stereo unspecified),.,-1,i,0.97,106,-21,134
COc1ccc(C(=O)C2CCCN(C(=O)Cn3nc(C)cc3C)C2)cc1F (stereo unspecified),.,.,i,1.1,103,.,.
CC(C)c1ccccc1-n1c(SCC(=O)N2CCc3ccccc3C2)nc2ccccc2c1=O,-0.7,-3,i,1.1,98,10,107
CC(C)COC(=S)Nc1ccccc1,0.6,-5,i,0.97,101,29,98
COC(=O)C(Cc1ccccc1)NC(=O)c1cc(S(=O)(=O)N(C)C)ccc1Cl (stereo unspecified),.,-1,i,1.1,96,.,.
Cc1cccc(CCN=c2c([N+](=O)[O-])nn(-c3ccccc3)n2O)c1,.,-3,i,0.99,74,-109,100
CC1CCCC(NC(=O)CN(C)S(=O)(=O)c2cnc[nH]2)C1C (stereo unspecified),.,3,i,0.92,98,-14,105
Cc1ccccc1NC(=O)Nc1nc2ccc(S(C)(=O)=O)cc2s1,-0.2,3,i,1.1,91,.,.
Cc1ccc(C(=O)c2sc3c(c2N)c(=O)[nH]c(=O)n3CCc2ccccc2)cc1,1.8,-4,i,0.84,103,.,.
CCCCCC(=O)NN1C(=S)N(c2ccc(OC)cc2)C(=O)C1CC(=O)Nc1ccccc1 (stereo unspecified),.,.,i,0.9,100,.,.
CC(C)c1cc(C(=O)Nc2sc3c(c2C#N)CCC3)no1,0.2,-15,i,0.96,88,.,.
O=C1CC(Nc2ccc(N3CCOCC3)cc2)C(=O)N1Cc1ccccc1 (stereo unspecified),-2.8,-4,i,0.95,93,50,120
CCN(C(N)=S)c1ccccc1,-0.1,-9,i,0.99,99,.,.
CN1CCN(c2nc(-c3ccccc3)c3cc(Cl)ccc3n2)CC1,18*,13,i,0.98,103,-36,176
CCCN(CC(=O)Nc1ccccc1C)C(=O)/C=C/c1cccs1,-0.4,-13,i,0.95,112,-39,80
Clc1ccc(-n2cccc2)cn1,.,1,i,0.98,93,.,.
